AmpC nodet inh: Promiscuous and Specific Inhibitors of AmpC Beta-Lactamase (assay without detergent) | hit rate 1.8% among 71,000 | P00811 | AmpC nitrocefin hydrolysis, absorbance 480 nm, no detergent; potencies from a single point are estimates | Potency, µM (top dose mostly 28.7 µM), without a hit: at the top dose activity change, negative = inhibition | AID 585, 2007; active = falling curve, for most hits resting on a single point; inconclusive = weak or doubtful change; inactive = flat or rising curve; also: % of control where 0% means no effect; about half of the hits show no inhibition at the top dose; a quarter of the inactives give rising signals
Target sequence (P00811 whole entry, looked up): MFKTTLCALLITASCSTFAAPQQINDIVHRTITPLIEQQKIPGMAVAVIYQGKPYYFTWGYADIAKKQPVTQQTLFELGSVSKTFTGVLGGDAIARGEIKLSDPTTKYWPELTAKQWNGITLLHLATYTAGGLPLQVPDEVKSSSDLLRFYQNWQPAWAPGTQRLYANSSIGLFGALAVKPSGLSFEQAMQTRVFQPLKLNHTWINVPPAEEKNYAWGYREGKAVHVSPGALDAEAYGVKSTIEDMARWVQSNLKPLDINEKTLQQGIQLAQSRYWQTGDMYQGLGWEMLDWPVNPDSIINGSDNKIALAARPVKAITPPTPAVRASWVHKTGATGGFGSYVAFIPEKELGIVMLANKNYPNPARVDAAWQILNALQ
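AmpC in 20 mM phosphate buffer pH 7.0 was preincubated 15 min at room temperature with compounds. Nitrocefin (800 uM stock) was then added and hydrolysis followed at 480 nm every 20 s for 4 min.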
An asterisk follows results filed as active; ? = inconclusive; [ ] = dose if it differs, or a comment. Potency is read from the fitted curve at half-maximal effect. Some of the compounds tested, so the mix of outcomes need not match the whole.

SMILES	AmpC nodet inh
COc1cccc2cc(C(=O)C3=C(O)C(=O)N(CCN4CCOCC4)C3c3cccs3)oc12 (stereo unspecified)	1%
O=c1cc(-c2ccccc2O)oc2c(O)c(O)ccc12	?
CC1CN(C(=O)c2cc(S(=O)(=O)N3CCCC3)c(Cl)cc2Cl)CC(C)O1 (stereo unspecified)	28%
CN(CP(=O)(O)C(O)c1ccccc1)S(C)(=O)=O (stereo unspecified)	-3%
O=C(CSc1nc(N2CCCCC2)nc(N2CCCCC2)n1)N1CCN(c2ccccc2)CC1	45%
CC(C)c1ccc(C(=O)N2CCN(CCO)CC2)cc1	-5%
O=C(NCc1ccc(F)cc1)N[C@@H](Cc1ccccc1)C(=O)O	14%
O=c1c2ccccc2n2nnnc2n1-c1ccccc1	-5%
CCOC(=O)N1CCN(C(=O)c2cn(CC(C)C)c(=O)c3c2c2ccccc2n3C)CC1	121%
O=C(Nc1nn[nH]n1)c1nc(-c2ccccc2)cc(=O)[nH]1	-8%[5.75 µM]
O=C(CN1CCC(C(=O)c2ccc(Cl)cc2)CC1)Nc1ccc2c(c1)OCCO2	56%
C/C=C/c1ccc(Oc2nnnn2-c2ccc(C(=O)O)cc2)c(OC)c1	-2%
CCCCc1cc(=O)oc2c(CN(C)C)c(O)ccc12	7%
CCOC(=O)CC(SP(=S)(OC)OC)C(=O)OCC (stereo unspecified)	?
CCOC(=O)C1=C(C)NC(=O)NC1c1cc(Br)c(O)c(OC)c1 (stereo unspecified)	1%
Cc1ccc(S(=O)(=O)c2nc(-c3ccccc3)oc2NCc2cccnc2)cc1	64%
Cc1nc2c(-c3ccccc3)c(C)[nH]n2c(=O)c1Cl	-5%
CCOC(=O)c1csc(NC(=O)C2CCCCC2)n1	5%
O=C(c1ccc(O)cc1)c1ccc(Cl)cc1	-12%
O=C(c1nn2c(C(F)(F)F)cc(-c3ccc(F)cc3)nc2c1Cl)N1CCOCC1	21%
O=S(=O)(c1ccccc1)N(C1=NCCS1)S(=O)(=O)c1ccccc1	-2%
Cc1cc(C(F)(F)F)c2c(N)c(C(=O)Nc3cc(C)on3)sc2n1	12%
O=C(CCCn1c(=O)[nH]c2cc(Cl)ccc2c1=O)NCCCN1CCCC1=O	14%
O=C(O)CSCC(=O)Nc1cccc2ccccc12	-19%
Cc1oc(C(=O)O)cc1COc1ccc2c(C)cc(=O)oc2c1	-9%
CCN(CC)S(=O)(=O)c1cccc(-c2nnc(SCc3nnc(-c4cccs4)o3)n2N)c1	17%
CCC(=O)N1CCc2cc(Br)cc(S(=O)(=O)N3CCCCCC3)c21	75%
FC(F)(F)c1cccc(-c2ccc(-c3csnn3)o2)c1	-8%
COc1ccc2c(c1)C(C)CC(C)(C)N2C(=O)CSc1ncn[nH]1 (stereo unspecified)	19%
CCC(C)NC(=O)C1CCN(S(=O)(=O)CC)CC1 (stereo unspecified)	-1%
CCCOC(=O)CN1C(=O)c2ccccc2C1=O	2%
CCSc1nnc(CNc2ccc(F)cc2)n1CC1CCCO1 (stereo unspecified)	16%
N#CC(C(=O)OC1CCCCC1)c1nc2ccccc2nc1N1CCCCC1 (stereo unspecified)	-4%
O=C(CSc1ncnc2c1oc1ccccc12)Nc1cccc(F)c1	-9%
CCCc1cc2c(n1Cc1cc(F)cc(F)c1)C(C)C1CN(C(=O)c3ccccc3)C(C)(C(=O)OC)C21 (stereo unspecified)	104%
Oc1ccccc1-c1cc(-c2ccccc2Cl)[nH]n1	-5%
C[C@]12CC[C@H]3c4ccc(O)cc4CC[C@@H]3[C@H]1C/C(=N/O)[C@H]2O	-7%[5.75 µM]
c1coc(C2Nc3cccc4cccc(c34)N2)c1	-22%
CC(=O)c1cccc(-n2nnnc2SCC(=O)N2CCCC2)c1	-7%
O=C(c1ccccc1NS(=O)(=O)c1cccs1)N1CCOCC1	9%
Cc1c(OCc2ccc(C(=O)O)o2)ccc2c3c(c(=O)oc12)CCC3	-10%
COc1ccc2c(c1O)-c1cccc3c1[C@H](C2)N(C)CC3	-4%
CCCC(C)C(=O)Nc1ccc2c(c1)OCCO2 (stereo unspecified)	-5%
Cc1ccc(S(=O)(=O)N(C)CC(=O)NC2CC(C)(C)NC(C)(C)C2)cc1	-4%
COc1ccc(NC(=O)N2CC3(CCN(S(=O)(=O)c4ccccc4)CC3)C2)cc1	23%
COc1ccc(C(=O)N2CCN(S(=O)(=O)c3ccc(C)cc3C)CC2)cc1OC	136%
CS(=O)(=O)c1ccc2nc(NC3(C(F)(F)F)N=C4SCCN4C3=O)sc2c1 (stereo unspecified)	-10%
Cn1c(NCCCN2CCOCC2)nc2c1c(=O)n(Cc1ccc(Cl)cc1)c(=O)n2C	120%
Cc1nn(-c2ccccc2)c(=S)n1-c1ccccc1	-2%
Nc1nc(N)c(-c2cccc(C(F)(F)F)c2)c(Cc2cccc(C(F)(F)F)c2)n1	16%[5.75 µM]
Cc1cnc(C)c(N2CCC(C(=O)NC(C)c3cccs3)CC2)n1 (stereo unspecified)	23%
FC(F)(F)C12CC(c3ccccc3)=NCCN1CCN2 (stereo unspecified)	-3%
COCCNC(=O)CSCc1c(F)cccc1Cl	5%
CCc1cc2c(s1)NC(=O)CN=C2c1cccs1	-4%
CCC1CCCCN1C(=O)CSc1nnc(-c2ccc(OC)cc2)o1 (stereo unspecified)	59%
CC(=O)c1ccc(Oc2ncnc3sccc23)c(CN2CCOCC2)c1	24%
COCCNS(=O)(=O)c1ccc2c(c1)oc(=O)c1cc(S(=O)(=O)NCCOC)ccc12	76%
Fc1ccc(F)c(CN2CCN(c3ncccn3)CC2)c1	6%
Cc1ccc(S(=O)(=O)N(C)CC(=O)N2CCN(c3ccccn3)CC2)cc1	53%
COc1ccc2oc(=O)cc(C)c2c1	-2%

Structures shown so far containing two or more sulfur atoms (seven):
SMILES	AmpC nodet inh
CCOC(=O)CC(SP(=S)(OC)OC)C(=O)OCC (stereo unspecified)	?
O=S(=O)(c1ccccc1)N(C1=NCCS1)S(=O)(=O)c1ccccc1	-2%
CCN(CC)S(=O)(=O)c1cccc(-c2nnc(SCc3nnc(-c4cccs4)o3)n2N)c1	17%
O=C(c1ccccc1NS(=O)(=O)c1cccs1)N1CCOCC1	9%
CS(=O)(=O)c1ccc2nc(NC3(C(F)(F)F)N=C4SCCN4C3=O)sc2c1 (stereo unspecified)	-10%
CCc1cc2c(s1)NC(=O)CN=C2c1cccs1	-4%
COCCNS(=O)(=O)c1ccc2c(c1)oc(=O)c1cc(S(=O)(=O)NCCOC)ccc12	76%

Next records:
SMILES	AmpC nodet inh
O=C(O)C1C2C=CC3(CN(c4cccc(C(F)(F)F)c4)C(=O)C13)O2 (stereo unspecified)	-15%
CCCOc1ccc(C(=O)N2CCCc3ccccc32)cc1	29%
CCOC(=O)Nc1ccc2c(c1)nc(CN1CCN(C(C)=O)CC1)n2C	-2%
CCN(CC)c1nc(-c2nn[nH]n2)nc(N(CC)CC)n1	2%
CC(=O)Nc1ccccc1N(C)S(=O)(=O)c1ccc(C)cc1	9%
O=c1cnc2cnc(Oc3ccccc3)nc2n1C[C@H]1CCCO1	21%
O=C(O)c1cc(-c2ccccc2)c(N2CCOCC2)s1	-10%
c1ccc2[nH]c(CCNC3CCCCC3)nc2c1	-11%
Nc1nc2c(C(=O)NCc3cccs3)nnn2c2cccc(Cl)c12	10%[5.75 µM]
O=S(=O)(c1ccccc1S(=O)(=O)N1CCCCC1)N1CCCCC1	12%
CCCn1c2c(c(O)c(C(=O)Nc3ccccc3)c1=O)CCCC2	4%
Cc1cc(C)nc(NS(=O)(=O)c2ccc(NC(=O)c3cccs3)cc2)n1	-16%
S=C1NCN2CCN(CC2)CNC(=S)C(=S)NCN2CCN(CC2)CNC1=S	-1%[5.75 µM]
CCN(CC)CCCNC(=O)C1c2ccccc2C(=O)N(C)C1c1ccc(OC)cc1 (stereo unspecified)	10%
Cc1cccc(CSc2ncnc3nc[nH]c23)c1	8%

The closing 6 records of the section above are carried over, then new ones follow.
SMILES	AmpC nodet inh
O=S(=O)(c1ccccc1S(=O)(=O)N1CCCCC1)N1CCCCC1	12%
CCCn1c2c(c(O)c(C(=O)Nc3ccccc3)c1=O)CCCC2	4%
Cc1cc(C)nc(NS(=O)(=O)c2ccc(NC(=O)c3cccs3)cc2)n1	-16%
S=C1NCN2CCN(CC2)CNC(=S)C(=S)NCN2CCN(CC2)CNC1=S	-1%[5.75 µM]
CCN(CC)CCCNC(=O)C1c2ccccc2C(=O)N(C)C1c1ccc(OC)cc1 (stereo unspecified)	10%
Cc1cccc(CSc2ncnc3nc[nH]c23)c1	8%
C[C@]1(c2ccccc2)OC(C(=O)O)=CC1=O	-9%
Cc1ccc(N(C)C(=O)Oc2cccc3cccnc23)cc1	29%
CCCOc1ccc(N2C(=O)CC(NCCCN3CCC(C(N)=O)CC3)C2=O)cc1 (stereo unspecified)	-4%
O=C(Nc1cccc(F)c1)N1CC[C@@]2(CCCN(C(=O)c3cc(C(F)(F)F)cc(C(F)(F)F)c3)C2)C1	81%
Cc1nc(SCCCSc2n[nH]c(C)n2)n[nH]1	6%
Cc1csc(NC(=O)CN(C)S(=O)(=O)c2cccc3cccnc23)n1	-6%
Cc1nn(-c2ccccc2)c2c1C1(C(=O)N(C)c3ccccc31)N(c1ccccc1)C(=O)N2 (stereo unspecified)	40%
NCCC[C@@H](CC(=O)N[C@@H]1CCCC[C@H]1C(=O)N[C@H](CC(=O)N[C@@H](CCC(=O)O)CC(=O)O)Cc1ccccc1)NC(=O)C[C@H](Cc1c[nH]c2ccccc12)NC(=O)[C@@H]1CNCC[C@H]1N	141%
O=C(Nc1ccccc1)N1CC2(CCN(C(=O)c3cccc(F)c3)CC2)C1	21%
CC(=O)N1CCc2cc(S(=O)(=O)NC(CC(C)C)C(=O)Nc3cc(C(=O)O)ccc3C)ccc21 (stereo unspecified)	-8%
OC(COc1ccccc1)Cn1cc(Br)cn1 (stereo unspecified)	19%
CC(C)OC(=O)CCCN1C(=O)c2ccc(N)cc2C1=O	1%
O=C(c1ccc(S(=O)(=O)N2CCOCC2)cc1)N(c1ccccc1)C1C=CS(=O)(=O)C1 (stereo unspecified)	-9%
CC1(C)Cc2c(sc3c2c(=N)n(Cc2ccco2)c(=O)n3CC(=O)Nc2cccc(Cl)c2)CO1	10%
O=C(NC1CCC(C(=O)O)CC1)OCc1ccccc1 (stereo unspecified)	8%
C=CCn1c(SCC(=O)Nc2ccccc2)nnc1-c1cccc(S(=O)(=O)N2CCOCC2)c1	111%
O=C(Nc1cnn(Cc2ccc(F)cc2)c1)c1cc(-c2cccs2)on1	13µM*[single pt active]
Cc1n[nH]c(C)c1S(=O)(=O)N1CCCC(C(=O)NC2CCCc3ccccc32)C1 (stereo unspecified)	4µM*[single pt active]
COc1ccc(Br)cc1S(=O)(=O)n1ccnc1C	8%
c1ccc(Cn2ncc3c2ncn2c(-c4ccncc4)nnc32)cc1	25%
CCCCn1c(=N)n(CC(O)COc2cccc(C)c2)c2ccccc21 (stereo unspecified)	19%
O=C(c1cc(F)c(F)cc1Cl)N1CCCCC1	-3%
Cc1occc1C(=O)NCCCc1ccccc1	6%
Cn1c(=O)n(Cc2ccccc2)c(=O)c2c1nc1n2CCS1	12%
O=C(c1ccccc1-c1ccccc1)N1CCN(c2ccccn2)CC1	54%
COc1cc(C(=O)NCCc2cn3ccc(C)cc3n2)cc(OC)c1OC	-2%
CC[N+]1(C)[C@@H]2CC[C@H]1CC(OC(=O)[C@H]1CC[C@@](C(=O)OC3C[C@H]4CC[C@@H](C3)[N+]4(C)CC)(c3ccccc3)c3ccccc31)C2 (stereo partly specified)	29%[12.8 µM]
Cc1csc(SCC(=O)Nc2cc(C(C)(C)C)nn2-c2ccccc2)n1	30%
CC1(C)CC(=O)C2=C(C1)N(Cc1cccnc1)C(=O)C2(NC(=O)C1CC1)C(F)(F)F (stereo unspecified)	-1%
CCCCn1c(NC(C)CC)nc2c1c(=O)[nH]c(=O)n2C (stereo unspecified)	-5%
CC(C)(C)OC(=O)N1CCOCCOCCN(C(=O)OC(C)(C)C)CCOCCOCC1	121%
Nc1nc(N2CCOCC2)nc2ccccc12	-3%
CCOc1ccc(C(=O)Nc2ccc3c(c2)OCCO3)cc1OC	?
COc1ccc(C(=O)N2CCN=C2SCc2cccnc2)c(OC)c1	22%
CCOC(=O)C1C2NC(=O)N(Cc3ccccc3)C1(C)Oc1c(OC)cccc12 (stereo unspecified)	22%
NCCC[C@@H](CC(=O)N[C@@H]1CCCC[C@H]1C(=O)N[C@H](CC(=O)N[C@@H](CCC(=O)O)CC(=O)O)Cc1c[nH]c2ccccc12)NC(=O)C[C@H](CO)NC(=O)[C@@H]1CCCC[C@H]1N	179%
COC(=O)c1ccc(NC(=O)C2C3CCC(C3)C2C(=O)O)cc1 (stereo unspecified)	-3%
COc1ccc(NC(=O)CCC2CCCC2)cc1OC	1%
O=C(NCc1ccco1)c1ccccc1NS(=O)(=O)c1ccc2c(c1)OCCO2	-21%
N#Cc1ccc(Oc2cccc(C(=O)O)c2)cc1C#N	2%
Cc1ccc(N(C)C)cc1	-10%
COc1ccc(F)cc1CN1CCN(C(=O)CCC(=O)Nc2nnc(C(C)C)s2)CC1	62%
Cn1ccnc1	8%
CCSc1nnc(NC(=O)C(C)(C)C)s1	-6%
CCN(CC)CCCN1C(=O)C(O)=C(C(=O)c2sc(C)nc2C)C1c1ccc(C)o1 (stereo unspecified)	2%
COc1ccc(Cl)cc1NC(=O)c1cnc2sccn2c1=O	1%
Cc1ccc(S(=O)(=O)N(C)CC(=O)OCc2nnc(-c3ccccc3)o2)cc1	34%
CCN(CCCNC(=O)CCNC(=O)Cn1ccc2ccccc2c1=O)c1ccccc1	?
